Rce1 inhib = yeast Ras-converting enzyme inhibition; Q03530; yeast membranes, quenched prenylated peptide cleavage fluorescence; calls only; 290,000 tested, 0.27% active;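 active = fall in fluorescence gain of 50% or more versus controls, with final raw signal at or below 3038400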;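 note: plate controls were neutral control wells for no effect and wells lacking membranes for full effect; tested at 10 µM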
UUG fidelity = alters start codon recognition fidelity in yeast; S. cerevisiae UUG-firefly luciferase reporter, luminescence/redox ratio; activity score, % at 18.7 µM; 350,000 tested, 0.13% active; AID 602363;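 active = replicate mean at a twofold rise or more, about +100% in these data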;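 note: firefly luciferase made from a UUG start codon reports start codon fidelity; reporter light over untreated wells divided by growth signal over untreated wells; some hits fall short of that in this replicate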
PABP polyA inh = blocks human PABP binding to poly(A) RNA | P11940 | fluorescence polarization | 290,000 tested, 1% active | inhibition, % at 35 µM;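 active = 50% or more with normal probe brightness, or confirmed in later tests; about a fifth of its hits are not listed in these tables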;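 note: calls also rest on retests at 20 µM and on dose response follow-up; controls were probe without protein and protein plus probe with vehicle; some compounds called inactive have numbers as strong as hits; many hits fall short of the cut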
Target sequence (P11940 whole entry, looked up): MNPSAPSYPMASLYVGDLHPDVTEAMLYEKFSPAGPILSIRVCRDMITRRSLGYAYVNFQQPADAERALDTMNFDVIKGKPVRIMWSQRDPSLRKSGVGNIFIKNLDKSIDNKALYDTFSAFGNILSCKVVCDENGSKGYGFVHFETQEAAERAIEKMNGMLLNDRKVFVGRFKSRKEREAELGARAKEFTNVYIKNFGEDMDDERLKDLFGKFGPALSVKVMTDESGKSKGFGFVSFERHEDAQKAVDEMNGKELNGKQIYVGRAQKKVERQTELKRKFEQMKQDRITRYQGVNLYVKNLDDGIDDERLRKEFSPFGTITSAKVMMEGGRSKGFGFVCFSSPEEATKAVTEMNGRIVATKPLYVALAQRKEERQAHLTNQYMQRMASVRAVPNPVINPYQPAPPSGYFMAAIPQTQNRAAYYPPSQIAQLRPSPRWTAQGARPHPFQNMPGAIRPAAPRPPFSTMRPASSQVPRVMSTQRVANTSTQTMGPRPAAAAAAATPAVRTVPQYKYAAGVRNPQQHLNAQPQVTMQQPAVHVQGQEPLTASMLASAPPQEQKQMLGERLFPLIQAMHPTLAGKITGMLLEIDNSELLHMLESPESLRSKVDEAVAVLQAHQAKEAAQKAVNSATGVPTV
CSC inhib = blocks cancer stem cells; 300,000 tested, 1.1% active; inhibition, % at 7.5 µM; cancer stem cell-like cells viability, luminescence;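 active = mean at 75% or more and at least half the replicates too; tested in HMLE shEcad cells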;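 note: 0% = median of negative and 100% = median of positive control wells; the first replicate is given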
eIF4H inh = inhibitors of RNA binding by human eIF4H; Q15056; eIF4H fluorescence polarization binding assay; inhibition, % at 35 µM; 290,000 tested, 0.94% active;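 active = 50% or more with normal probe brightness, or confirmed in later tests; about a fifth of its hits are not listed in these tables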;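 note: calls also rest on retests at 20 µM and on dose response follow-up; 0% = protein and probe with vehicle and 100% = probe without protein; strong numbers were not always called active; many hits fall short of the cut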
MT1-MMP act inh = inhibitors of human MT1-MMP activation | 360,000 tested, 0.061% active | HT1080 RFP-PRO-GFP cells, GFP/RFP ratio fluorescence, overnight; percent of plate control window, DMSO zero | GFP/RFP ratio change, % at 20 µM;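 active = GFP/RFP ratio change of at least 30% with cell ATP level not reduced by more than half and red fluorescence within 50% of control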; note: strong numbers were not always called active
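Assay system: RFP-PRO-GFP reporter HT1080 cells; read-out basis: GFP/RFP fluorescence ratio; benchmarks: DMSO wells and RFP-L50D-GFP cells; doses: 20 µM single dose, 1% DMSO; schedule: overnight cell settling, then overnight compound exposure, 37 °C, 5% CO2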
HIV Env fusion = inhibitors of HIV Env-mediated cell fusion. HeLa-JRFL Env/CEM21 cell fusion, luciferase. inhibition, % at 12.3 µM. 360,000 tested, 1.1% active;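 active = mean replicate inhibition score of at least 50 and every replicate individually at or above 50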;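 note: 0% = plate neutral controls and 100% = maraviroc near 300 nM; one replicate is shown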
MT1-MMP act inh RFP = also measured in MT1-MMP act inh; calls as there; RFP signal change, %; measured here: RFP expression control read;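 0 = vehicle wells; hits needed this value within 50% of zero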
The depositor's hits bear a star; i = inactive; · = no result given.

Start of the listing, in advance:
item	compound	Rce1 inhib	UUG fidelity	PABP polyA inh	CSC inhib	eIF4H inh	MT1-MMP act inh	MT1-MMP act inh RFP	HIV Env fusion
1	CCOC(=O)C1CCCN(C(=O)c2cc(-c3ccncc3)nc3ccccc23)C1 (stereo not given)	·	-17.9	·	-6.9	·	-2.7	2.2	11.6
2	CCCCNCCCOc1ccc(C)cc1Br	i	·	6.2	11.8	6.3	·	·	4.1
3	COc1ccc(S(=O)(=O)N2CCN(C(=O)CN3C(=O)NC4(CCCC4)C3=O)CC2)cc1	i	-5.5	-2.8	-8.2	1.6	2.0	2.1	·

This part in full, from the first entry:
item	compound	Rce1 inhib	UUG fidelity	PABP polyA inh	CSC inhib	eIF4H inh	MT1-MMP act inh	MT1-MMP act inh RFP	HIV Env fusion
1	CCOC(=O)C1CCCN(C(=O)c2cc(-c3ccncc3)nc3ccccc23)C1 (stereo not given)	·	-17.9	·	-6.9	·	-2.7	2.2	11.6
2	CCCCNCCCOc1ccc(C)cc1Br	i	·	6.2	11.8	6.3	·	·	4.1
3	COc1ccc(S(=O)(=O)N2CCN(C(=O)CN3C(=O)NC4(CCCC4)C3=O)CC2)cc1	i	-5.5	-2.8	-8.2	1.6	2.0	2.1	·
4	COc1ccc(OC2CCN(S(=O)(=O)c3cccc(F)c3)CC2)cc1	i	-8.1	5.2	10.2	3.4	0.7	-3.3	4.5
5	O=C(NCC(=O)N1CC=C(c2ccccc2)CC1)c1ccc(F)cc1	·	·	·	-8.3	·	-2.1	-4.8	2.1
6	O=C(CSC1=Nc2ccccc2C2=NC(CC(=O)NCc3ccco3)C(=O)N12)NCC1CCCO1 (stereo not given)	i	1.3	27.3	3.0	16.9	-0.8	7.0	-114.9
7	OCCCNC(=S)Nc1ccc2nccnc2c1	i	·	-9.1	-8.3	0.0	-3.9	0.5	8.4
8	COc1ccc(NCC(=O)Nc2ccc(Cl)cc2C)c(OC)c1	i	-15.8	4.0	14.9	0.4	3.7	-8.3	·
9	O=C(c1[nH]c(C(F)(F)F)nc1-c1ccccc1)N1CCN(Cc2c(F)cccc2Cl)CC1	·	-11.6	·	·	·	6.7	5.2	-15.3
10	O=c1oc2ccccc2n1Cc1ccccc1F	i	-10.1	4.7	2.7	1.6	-4.4	0.8	-6.8
11	c1ccc2c(N3CCOCC3)c3c(nc2c1)CCC3	·	-11.0	-6.2	-3.0	6.5	-5.1	0.4	0.4
12	COC(=O)c1ccc(CSc2nnc(-c3ccccc3)n2C)o1	i	·	-0.5	-0.5	4.9	0.5	2.9	1.6
13	CN(c1ccc2nc3ccccc3c(=O)n2n1)C1CCCCC1	i	-87.9	4.5	·	4.6	-1.5	0.3	68.2*
14	O=C(O)CCC(=O)N1CCN(c2nc(-c3ccccc3)c3cc(Br)ccc3n2)CC1	i	-4.5	-0.2	-11.6	-14.2	9.3	-7.9	4.6
15	CCOC(=O)C1CCN(C(=O)CSc2nc(N)cc(=O)[nH]2)CC1	i	-31.1	-1.3	-16.0	-9.2	3.5	6.1	5.8
16	CCC(CO)NCC#Cc1ccccc1 (stereo not given)	i	·	0.3	-10.0	-1.5	0.6	-1.1	7.1
17	COc1cccc(-c2nc(CS(=O)(=O)CC(=O)N3CCCCC3)c(C)o2)c1	i	-21.3	-2.6	11.9	-8.0	5.6	-2.7	3.7
18	CCN(C(=O)C1CCCCC1)c1nnc(-c2cccnc2)s1	i	2.6	11.8	20.1	-7.8	7.0	0.8	24.4
19	CCOC(=O)N1CCC(NS(=O)(=O)c2ccc3c(c2)CCN3C(C)=O)CC1	i	-7.4	-9.3	8.0	-6.0	15.7	-1.4	·
20	C=CCc1ccc(OCCOCCOc2ccccc2[N+](=O)[O-])c(OC)c1	i	-3.5	5.6	4.0	5.6	8.5	-3.4	·

The list goes on; the last three above are carried over.
item	compound	Rce1 inhib	UUG fidelity	PABP polyA inh	CSC inhib	eIF4H inh	MT1-MMP act inh	MT1-MMP act inh RFP	HIV Env fusion
18	CCN(C(=O)C1CCCCC1)c1nnc(-c2cccnc2)s1	i	2.6	11.8	20.1	-7.8	7.0	0.8	24.4
19	CCOC(=O)N1CCC(NS(=O)(=O)c2ccc3c(c2)CCN3C(C)=O)CC1	i	-7.4	-9.3	8.0	-6.0	15.7	-1.4	·
20	C=CCc1ccc(OCCOCCOc2ccccc2[N+](=O)[O-])c(OC)c1	i	-3.5	5.6	4.0	5.6	8.5	-3.4	·
21	CC(=O)NC(C)C(=O)OCC(=O)c1ccc(Cl)s1 (stereo not given)	i	·	-2.4	-8.4	0.8	-3.7	5.1	-93.4
22	Cn1c(C(=O)N2CCCc3ccccc32)cc2sccc21	i	-3.7	-11.0	-0.4	-9.0	-3.1	-2.9	-34.2
23	O=Cc1ccc(OC(=O)c2cc(Cl)nc3ccccc23)cc1	i	·	6.4	-5.6	-3.8	0.2	1.2	4.5
24	CCOC(=O)C1CCN(c2c(NCc3ccc(C(=O)N(C)Cc4ccccc4)cc3)c(=O)c2=O)CC1	i	-25.1	1.1	-18.6	-1.0	1.2	0.8	25.4
25	Cc1ccc(NC(=S)N(CCN(C)C)C(C)c2ccco2)cc1Cl (stereo not given)	i	-14.6	0.5	-3.1	2.5	2.1	-3.2	9.0
26	COc1cc(OC)cc(C(=O)Nc2ccc3nc4n(c(=O)c3c2)CCCCC4)c1	i	-12.5	5.9	42.9	-4.5	1.7	-0.4	-20.8
27	CCCCn1c(N)c(N(CC(C)C)C(=O)C2CC(=O)N(Cc3ccccc3)C2)c(=O)[nH]c1=O (stereo not given)	i	·	·	-4.2	·	-5.9	-3.6	-13.3
28	COc1ccccc1N1CCN(c2cnccn2)CC1	·	-4.4	3.5	-5.8	5.7	0.0	0.7	-0.5
29	CSc1ccc(/C=C/C(=O)OCC(=O)NC2CCCCCC2)cc1	·	-16.8	·	·	·	4.2	-1.0	-13.9
30	O=C(c1cc(S(=O)(=O)N2CCOCC2)ccc1F)N(CCc1ccccc1)Cc1ccccc1	i	7.5	·	·	·	-7.4	-9.5	12.5
31	CC(=O)c1cccc(NC(=O)c2ccccc2N(C)S(=O)(=O)c2ccc(C)cc2)c1	i	5.0	9.8	-9.8	-4.9	-1.5	-2.4	-4.7
32	CC(NC(=O)CCNC(=O)c1ccco1)c1ccccc1 (stereo not given)	i	-18.9	·	-13.7	·	·	·	·
33	Cc1ccccc1CC(=O)Nc1cccnc1	i	-20.7	-13.4	-4.7	0.9	1.0	1.3	-93.0
34	CCCCOCP(=O)(CC)COCCCC	i	-14.5	-1.4	-18.0	10.7	1.3	4.4	·
35	Cc1cnc(C(=O)OCC(=O)NC2CCCCC2)cn1	i	-15.9	2.6	2.5	-4.1	3.7	5.1	8.8

Records 21–23 of the list above:
item	compound	Rce1 inhib	UUG fidelity	PABP polyA inh	CSC inhib	eIF4H inh	MT1-MMP act inh	MT1-MMP act inh RFP	HIV Env fusion
21	CC(=O)NC(C)C(=O)OCC(=O)c1ccc(Cl)s1 (stereo not given)	i	·	-2.4	-8.4	0.8	-3.7	5.1	-93.4
22	Cn1c(C(=O)N2CCCc3ccccc32)cc2sccc21	i	-3.7	-11.0	-0.4	-9.0	-3.1	-2.9	-34.2
23	O=Cc1ccc(OC(=O)c2cc(Cl)nc3ccccc23)cc1	i	·	6.4	-5.6	-3.8	0.2	1.2	4.5

Screening data (PubChem)
